Assay outcomes: PubChem BioAssay, several laboratories
LANA-H2A inh = blocks KSHV LANA binding to histone H2A/H2B | cell-free LANA-H2A/H2B peptide, fluorescence polarization | inhibition, % (no concentration beside the values) | 0.6% of 320,000 active | AID 2629; in the data active = inhibition mostly above about 10%, no sharp cut-off; inactive = mostly below about 6.7%;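 also: stock transfer was 7.5 nL into about 10 µL; 0% = median of vehicle wells and 100% = median of positive control wells; one replicate is shown; the record names a cut of 25% in any replicate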
Ecoli growth = blocks Escherichia coli growth; OD600, 23 h; active compounds read low; OD600 absorbance (no concentration beside the values); 0.21% of 330,000 active;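 active = OD600 absorbance below the run mean of sample wells minus 3.6 SD, in any replicate, cut at about 0.56 in these data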;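 also: stock transfer was 300 nL into about 60 µL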
Beta2AR agonist = activates human beta-2 adrenergic receptor causing internalization | P07550 | Am2.2-beta2AR cells, FAP receptor internalization, flow cytometry; reference of the scale not given here | response, % (test concentration not listed) | 0.43% of 340,000 active | AID 504454;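 active = response above a set limit, near 3 SD of response in nonfluorescent compounds, cut at about 42% in these data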;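 also: stock transfer was 100 nL into about 11 µL; a reference agonist was the positive control; negative values mostly stem from fluorescent compounds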
Target sequence (P07550 whole entry, looked up): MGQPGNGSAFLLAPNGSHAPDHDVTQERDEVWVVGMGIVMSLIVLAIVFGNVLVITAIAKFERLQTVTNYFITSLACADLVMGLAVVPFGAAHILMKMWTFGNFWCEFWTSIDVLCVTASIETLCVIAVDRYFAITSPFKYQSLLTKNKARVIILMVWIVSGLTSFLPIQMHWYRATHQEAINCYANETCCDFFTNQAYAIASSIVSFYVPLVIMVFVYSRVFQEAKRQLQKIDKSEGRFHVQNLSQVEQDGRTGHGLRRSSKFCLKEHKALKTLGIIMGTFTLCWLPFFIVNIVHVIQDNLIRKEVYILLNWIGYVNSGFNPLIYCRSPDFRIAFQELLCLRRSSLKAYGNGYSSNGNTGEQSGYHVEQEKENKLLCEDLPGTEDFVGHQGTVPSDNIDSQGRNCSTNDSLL
HNF4A DNA FP = change in binding of human HNF4 alpha to DNA; HNF4a-FITC DNA binding, fluorescence polarization, 1 h; P41235; AID 1224865; 0.3% of 360,000 active; activity change, % at 10 µM; in the data active = activity change above about 30%, passing the limit was not always enough;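 also: controls were the assay level and a saturating level of protein; the project sought stronger binding though the title names inhibitors; some compounds called inactive have numbers as strong as hits; positive values seem to mean higher polarization but the record does not say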
ALR H2O2 inh = human ALR oxidase inhibition via reduced H2O2 | purified ALR, DTT oxidation, H2O2 HRP-luminol luminescence | inhibition, % (concentration not given with the values) | 3.8% of 290,000 active;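 active = mean and each replicate at 75% or more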;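 also: stock transfer was 7.5 nL into about 7.5 µL; 0% = neutral wells and 100% = wells with inactivated enzyme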
Target sequence (P55789 whole entry, looked up): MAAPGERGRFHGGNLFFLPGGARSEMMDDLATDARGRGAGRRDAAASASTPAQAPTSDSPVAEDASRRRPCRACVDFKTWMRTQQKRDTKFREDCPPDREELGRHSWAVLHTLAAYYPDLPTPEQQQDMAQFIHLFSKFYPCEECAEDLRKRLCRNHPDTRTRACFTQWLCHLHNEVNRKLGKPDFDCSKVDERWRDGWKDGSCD
UCH37 inh = human UCH37 deubiquitinating enzyme inhibition; purified proteasome/UCH37, Ub-AMC cleavage fluorescence; inhibition, % (test concentration not listed); 0.33% of 330,000 active;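 active = mean of two replicates above 20%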;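 also: 0% = compound-free wells with enzyme and 100% = wells lacking proteasome; stock transfer was 100 nL into about 20 µL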
Target sequence (Q9Y5K5 whole entry, looked up): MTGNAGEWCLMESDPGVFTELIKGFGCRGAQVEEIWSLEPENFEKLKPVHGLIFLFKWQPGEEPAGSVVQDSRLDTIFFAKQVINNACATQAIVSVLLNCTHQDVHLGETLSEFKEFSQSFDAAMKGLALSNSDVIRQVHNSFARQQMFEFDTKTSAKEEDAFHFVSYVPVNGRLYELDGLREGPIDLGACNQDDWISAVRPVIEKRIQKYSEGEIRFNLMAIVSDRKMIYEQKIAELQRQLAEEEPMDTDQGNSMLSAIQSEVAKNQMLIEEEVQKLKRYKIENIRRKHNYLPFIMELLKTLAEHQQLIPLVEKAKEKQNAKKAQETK
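Schedule: 30 min plus 25 min, room temperature / Material: human UCH37 within purified proteasomes / Technique: AMC fluorescence intensity at 355/460 nm / Buffer or medium: pH 7.4 Tris-HCl (50 mM) with ovalbumin, ATP-MgCl2, DTT / Controls: wells without proteasome as full block, compound-free enzyme plus substrate as uninhibited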
FGF22 binding = FGF22 (human) thermal shift binding; Q9HCT0; recombinant FGF22 thermal shift, SYPRO orange fluorescence; percent of sucrose octasulfate shift, DMSO zero; calls only at 9.99 µM; 1.5% of 340,000 active; AID 651658;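 active = melting point raised past a set limit in the mean and every replicate; three in four hits are not shown here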
* = called active by the depositor; i = inactive; . = not tested or not shown. Some of the compounds tested; the hit share may differ from the screen's.

Compound	LANA-H2A inh	Ecoli growth	Beta2AR agonist	HNF4A DNA FP	ALR H2O2 inh	UCH37 inh	FGF22 binding
O=C1C(=O)N(Cc2cccnc2)C(c2cccc(F)c2)/C1=C(/O)c1ccc2c(c1)OCO2 (stereo unspecified)	-0.8	0.66	-7	-2.2	-1	11	i
COc1ccc(/C=C/C(=O)NCC(=O)N/N=C(\C)Cc2ccccc2)cc1	-2.1	.	0	-0.5	2	.	i
CCc1ccccc1NS(=O)(=O)c1ccc2c(c1)NC(=O)CC(=O)N2	9.6	0.67	2	0.6	-10	-1.2	.
O=C(CCN1C(=O)COc2ccccc21)NCCCN1CCc2ccccc2C1	-3.7	0.66	-8	-5.1	-6	2.0	.
Cc1ccnc(N/C=C/C(=O)c2ccc(Br)cc2)c1	0.8	0.67	-12	6.2	-7	-0.2	i
Brc1cccc2sc(N3CCN(c4ccccc4)CC3)nc12	-3.1	0.74	-8	-2.6	5	3.2	i
CCOc1cc(OCC)cc(C(=O)NCc2ccco2)c1	-1.0	0.62	5	-5.0	-7	2.7	i
Cc1ccccc1OCC(=O)N/N=C/c1cccc2cccnc12	-2.8	.	-8	3.1	-2	.	i
CCOc1ccc(N(CC(=O)NN=C2CCN(C)CC2)S(=O)(=O)c2ccc(Br)cc2)cc1	-22	0.68	-8	-1.7	4	3.9	i
Cc1ccc(-n2c3c(c(=O)[nH]c2=S)C(C(F)(F)F)(C(F)(F)F)NC(=O)N3)cc1	-0.7	0.64	5	2.5	4	-0.4	.
CC(C)Cn1nc(C(=O)Nc2nnc(C3CC3)s2)c2ccccc2c1=O	-3.1	0.68	0	-6.3	-7	4.0	i
COc1ccc(CNS(=O)(=O)NCc2ccccc2F)cc1	3.5	0.66	0	0.8	0	0.8	i
Cn1c(=O)n(C)c2cc(C(N)=O)ccc21	-3.2	0.68	-1	-0.2	-15	2.5	i
CCOC(=O)C1CCN(S(=O)(=O)CCNC(=O)c2ccc(F)cc2)CC1	-2.0	0.71	6	0.6	.	1.6	i
Cc1noc(C)c1S(=O)(=O)N1CCC(C(=O)c2ccccc2)CC1	2.6	0.71	8	-2.0	1	3.6	i
CC1CCCN(C2(O)C(=O)Nc3ccc(Cl)cc32)C1 (stereo unspecified)	7.3	0.66	0	2.8	1	2.3	i
COc1ccc(Cl)c(NC(=O)Nc2c(C)n(-c3ccccc3)c(=O)n2C)c1	-0.5	0.77	-4	1.1	2	2.3	.
COc1cccc(C2/C(=C(\O)c3ccc4c(c3)OCCO4)C(=O)C(=O)N2CCCN2CCOCC2)c1OC (stereo unspecified)	0.6	0.69	-4	5.3	-2	11	.
Cc1ccnc(N2CCCC(C(=O)Nc3nnc(C)s3)C2)n1 (stereo unspecified)	5.7	0.63	7	-0.5	-3	-1.1	.
COc1ccc(Cc2nc3ccc(C(=O)N4CCCC4)cc3o2)cc1	0.6	0.69	-3	1.3	2	1.0	i
CC(=O)Nc1ccc(-c2ccc3nnc(C)n3n2)cc1	12	0.68	-4	2.0	-2	-3.0	i
COc1cc2c(OC)cccc2cc1C(=O)O	2.5	0.7	-21	-1.5	-29	-121	.
C/C(=N\NC(=O)c1ccn(C)n1)c1cccc(NC(=O)c2ccncc2)c1	-4.4	.	1	-3.1	0	.	.
CCOc1ccc(N(CC(=O)N/N=C/c2ccc(OC(C)C)cc2)S(C)(=O)=O)cc1	-7.4	.	-17	-0.9	0	.	i
COC(=O)c1ccc(COc2ccccc2/C=C(\C#N)C(=O)Nc2c(C)cc(C)cc2C)cc1	3.1	0.75	2	-0.4	-33	3.2	i
Cc1ccc(-n2c(SCC(=O)N3CC(=O)Nc4ccccc43)nc3ccccc3c2=O)cc1	-2.9	0.72	-2	3.1	98*	3.6	i
CCNc1nc(SCC(=O)Nc2ccccc2)nc(N2CCOCC2)n1	2.0	0.69	0	-2.6	-2	3.0	i
COc1cc(OC)cc(-c2cc3nc4c(c(N5CCN(c6ncccn6)CC5)n3n2)CCCC4)c1	0.4	0.72	1	-4.1	-6	-81	i
Cc1ccc(NC(=S)NCCc2ccccc2)nc1	3.2	0.66	8	-0.7	10	-1.4	i
COc1ccc(OC)c(NC(=O)CSc2nc3cccnc3n2C)c1	3.1	0.76	-6	-11	-21	-0.8	.
CC(NS(=O)(=O)c1ccc(Cl)c(Cl)c1)C(=O)Nc1cccnc1 (stereo unspecified)	2.1	0.69	7	-0.8	-10	0.7	i
O=C(CN1CCN(c2ccccn2)CC1)Nc1cccc(F)c1	0.4	0.69	-6	-1.9	7	3.4	i
CSc1ccccc1-n1nnnc1SCC(=O)Nc1ccccc1C	-5.8	0.67	-2	-2.5	-2	-0.5	.
COc1ccc(C(C(=O)NCc2ccccc2)N(Cc2ccc3c(c2)OCO3)C(=O)c2cnccn2)cc1 (stereo unspecified)	-3.5	0.7	0	-2.5	-5	-1.3	.
COc1ccccc1Oc1ccc2c(c1)C(=O)N(c1ccc(O)cc1)C2=O	-1.7	0.8	0	0.8	17	1.8	.
Cc1ccc(S(=O)(=O)Nc2c(NC3CCCCC3)c3ccccc3oc2=O)c(C)c1	3.0	0.68	5	-0.3	-4	-1.4	.
Cc1ccc(/C=N/NC(=O)Cc2cccs2)o1	2.2	.	2	3.0	-2	.	i
COc1cc(C)c(C(C)C)cc1S(=O)(=O)n1ccnc1	0.5	0.66	2	1.4	-4	2.3	i
O=C(NNCc1ccccc1)c1ccccc1	.	0.67	-4	-2.5	.	1.4	i
CC(=O)Nc1ccc(NC(=O)C(C)OC(=O)CNS(=O)(=O)c2cccc(Cl)c2)cc1 (stereo unspecified)	-1.0	0.64	7	-3.1	-6	3.4	i
CCOC(=O)N1CCN(S(=O)(=O)c2ccc3c(c2)CCN3C(=O)C2CCC2)CC1	0.7	0.77	-13	-0.7	0	-1.5	.
CCOc1ccc(OCCOCCN2CCOCC2)cc1	-4.3	0.7	4	4.2	-3	1.3	.
Cc1cccc2cc(C3CC(c4cccs4)=NN3C(=O)CCC(=O)O)c(Cl)nc12 (stereo unspecified)	1.6	0.69	6	-4.5	0	-1.8	i
CCOc1ccc(N(CC(=O)Nc2cc(OC)cc(OC)c2)S(=O)(=O)c2c(C)[nH]c(=O)[nH]c2=O)cc1	3.1	0.59	4	-1.1	-20	1.6	i
CCOc1ccccc1-c1nc2c(s1)CCc1onc(-c3ccc(OC)cc3)c1-2	-0.8	0.73	3	7.3	-4	1.4	.
CC(=O)Nc1ccc(S(=O)(=O)NCCC(=O)NNC(=O)c2ccncc2)cc1	1.5	0.65	-9	1.8	-3	2.2	i
CN1CCC2(CC1)N=C(c1ccc(F)cc1)C(=S)N2C(=O)c1ccccc1	-1.4	0.7	2	-0.6	25	8.7	i
Cn1c(=O)n(C)c2cc(/C=N/n3cnnc3)ccc21	-2.1	.	-2	-0.7	-20	.	.
O=C(Nc1ccc2c(c1)OCCO2)C1CCN(S(=O)(=O)Cc2ccccc2)CC1	0.4	0.7	0	2.5	-1	1.3	.
CN(C)c1cccc(NC(=O)Cc2ccc(F)cc2)c1	-7.2	0.66	-7	-2.2	32	3.5	.
COc1ccc(C2=NN(C(=O)CCC(=O)O)C(c3ccccc3)C2)cc1 (stereo unspecified)	.	0.68	3	-0.3	.	0.4	i
COc1ccc(-c2noc(COc3ccc4c(c3)OCO4)n2)cc1OC	5.6	0.7	-1	-1.4	-15	0.3	.
COc1ccc(-c2cc(C(F)(F)F)nc(SCCC(=O)NCc3ccco3)n2)cc1	3.4	0.72	.	.	97*	-1.4	.
COc1ccc(NC(=O)c2cc3ccc4c5ccccc5[nH]c4c3cc2O)cc1	4.0	.	1	-0.1	5	.	i
COc1cc(C(N)=O)cc(Cl)c1OC	-0.1	0.62	-3	2.4	-4	0.5	.
CCOc1ccc(N(CC(=O)Nc2ccc(OC)cc2)S(C)(=O)=O)cc1	3.9	0.72	5	0.8	-9	3.2	.

New compounds follow
Compound	LANA-H2A inh	Ecoli growth	Beta2AR agonist	HNF4A DNA FP	ALR H2O2 inh	UCH37 inh	FGF22 binding
CCOC(=O)N1CCC(Nc2c([N+](=O)[O-])cc(C(=O)O)cc2[N+](=O)[O-])CC1	-8.6	0.69	-1	-2.1	-10	9.0	i
OC(COc1ccc(Cl)cc1)CN1CCC(Cc2ccccc2)CC1 (stereo unspecified)	-0.5	0.62	1	4.7	-6	6.2	i
O=C(COC(=O)COc1ccc(Cl)cc1)Nc1ncc(Br)s1	.	0.68	-5	-4.7	.	2.8	i
Cc1ccccc1CN1CCCC(C(=O)N2CCCCC2)C1 (stereo unspecified)	-3.8	0.63	-2	-2.1	-3	2.0	i
COc1ccc(CNC(=O)[C@@H](NC(=O)C2CCN(C(=O)[C@@H](N)CCSC)CC2)C(C)C)cc1	-3.7	0.68	23	28	-5	0.5	i
CCOc1ccccc1NC(=O)CN1CCC(NC(=O)c2ccccc2)CC1	1.3	0.68	9	-0.8	-5	0.7	.
C=CCOc1cccc(C2NC(=O)c3ccccc3O2)c1 (stereo unspecified)	-0.6	0.7	-15	-0.9	.	-0.3	i
CC1CCC(NC(=O)c2cccc(S(=O)(=O)NCc3ccccc3)c2)CC1 (stereo unspecified)	-0.5	0.69	-7	4.1	1	3.1	i
CC(C)(C)Nc1scc(-c2ccccc2)[n+]1-c1ccccc1	8.1	0.72	1	-1.6	5	4.4	i
COc1ccc(N2CCN(C(=O)CC(NC(N)=O)c3cccc(Oc4ccccc4)c3)CC2)cc1 (stereo unspecified)	-0.8	0.68	-6	0.4	18	1.0	.
Cc1ccn(CCC(=O)NC2CC(C)(C)Cc3c2cnn3-c2ccccc2C)n1 (stereo unspecified)	1.7	0.66	2	-1.8	3	6.0	i
COc1ccc(N2CCN(C(=O)c3cc4c(C)nc5ccccc5c4o3)CC2)cc1	-2.2	0.64	-3	-3.0	69	-0.8	i
O=C(Cc1coc(-c2ccc(F)cc2)n1)NCc1ccccc1	5.5	0.73	-6	4.0	-1	-3.7	.
N#Cc1cnc(Nc2ccc(F)cc2)nc1N	-5.3	0.7	-4	0.0	-4	6.1	i
CC(=O)Nc1ccc(NC(=O)Cc2ccc(S(=O)(=O)N3CCCCC3)cc2)cc1	.	0.7	3	-0.9	.	5.0	i
COc1ccc(NS(=O)(=O)c2ccc(N3CCOCC3)c(NC(=O)C(C)C)c2)cc1	-2.2	0.69	6	0.6	-3	4.2	i
O=C(Nc1cccn(Cc2ccccc2)c1=O)NC1CCCCC1	3.9	0.67	-3	-2.6	-17	-8.7	.
C=CCNC(=O)CN(c1cc(Cl)ccc1OC)S(=O)(=O)c1ccc(C)c([N+](=O)[O-])c1	-3.1	0.7	-3	-1.8	-6	-1.1	i
CC1=NN(c2ccc(Cl)cc2)C(=O)/C1=C\c1cccn1-c1ccc(S(N)(=O)=O)cc1	2.1	0.72	10	-2.3	2	4.1	.
Nc1ccn(Cc2ccccc2)n1	-3.8	0.72	2	-0.2	8	3.3	i
Cc1ccc(NC(=O)c2ccc(S(=O)(=O)N3CCCCC3)cc2)nc1	1.1	0.64	-4	1.9	-2	5.4	i
Cc1ccc2cc(CCl)c(Cl)nc2c1	3.7	0.66	-8	2.2	98*	5.9	i
C=C1[C@@H](OC(C)=O)CC[C@]2(C)[C@@H]1C[C@@H]1C[C@H](OC(C)=O)C(C)=C([C@@H](OC(C)=O)[C@@H]2OC(C)=O)C1(C)C	-2.9	.	7	-2.1	-24	3.0	i
CCN(CC)S(=O)(=O)c1ccc(O)c(C(=O)OCC(=O)Nc2cc(C)c(C)cc2[N+](=O)[O-])c1	-1.3	0.72	-9	-4.8	14	0.8	i
